WNV NS2B-NS3 inh – WNV NS2B-NS3 proteinase inhibition; P06935; WNV NS2B-NS3 protease, fluorogenic substrate Ex360/Em465; stronger effect = lower value; z-score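 (tested at a level between 10 and 100 µM)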; actives 0.18% (n = 65,000);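 active = z-score at -3 or under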;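 also: score is relative to mean and spread of the compound wells of a plate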
Target sequence (P06935 1371-1501 limits assumed): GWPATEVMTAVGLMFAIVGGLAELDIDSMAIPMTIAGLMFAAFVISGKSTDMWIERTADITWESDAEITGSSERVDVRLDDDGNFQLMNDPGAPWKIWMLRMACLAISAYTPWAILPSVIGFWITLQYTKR
Target sequence (P06935 1502-1679 limits assumed): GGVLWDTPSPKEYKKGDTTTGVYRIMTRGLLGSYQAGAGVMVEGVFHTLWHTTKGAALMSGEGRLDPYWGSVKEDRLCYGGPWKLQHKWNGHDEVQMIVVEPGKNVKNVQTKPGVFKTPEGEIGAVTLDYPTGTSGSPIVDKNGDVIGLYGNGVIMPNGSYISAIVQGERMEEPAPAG
Hsc70 ATP site – Hsc70 inhibitors, probe displacement, primary screen, biochemical, fluorescence polarization (AID 568); one-dose displacement, % at 20 µM; IC50 in µM for titrated hits; 83,000 tested, under 10 active; Hsc70 fluorescence polarization, probe displacement; higher % means a stronger effect; strong numbers were not always called active;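 active = displacement above 50% without optical interference and an IC50 on retest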;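 also: ATPase domain with a fluorescein-tagged ATP probe; 0% = vehicle and 100% = excess ADP; read after one hour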
MT1-MMP promoter – MT1-MMP gene expression reporter suppression – cell-based, luciferase reporter, luminescence (AID 618). MT1-MMP promoter luciferase reporter cells, luminescence. calls from a first round at 10 µM; hits with a dose series show EC50 in µM. actives 0.62% (n = 87,000);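 active = over half of the reporter light lost at 10 µM or EC50 under 50 µM; inactive = the rest and hits that failed the dose series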;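 also: actives suppress MT1-MMP promoter-driven transcription so potencies describe inhibitors; HT1080 fibrosarcoma cells; overnight exposure; toxic or luciferase-blocking compounds were not removed from the actives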
Numbers without * were called inactive; i = inactive; nt = not tested or not shown. Some of the compounds tested (hit frequency here may not be typical).

SMILES	WNV NS2B-NS3 inh	Hsc70 ATP site	MT1-MMP promoter
Clc1ccc(Cn2ncc3c(NCc4cccnc4)ncnc32)cc1	-0.03	-2.0%	i
CCC(=O)Nc1cccc(NC(=O)CSc2nnc(C3CC3)n2C)c1	-0.51	-1.1%	i
NC(=O)C1CCN(C(=O)c2ccc(C(F)(F)F)cc2)CC1	1.5	-1.9%	i
Cc1ccc(NCc2nnc(SCC(N)=O)n2CC2CCCO2)c(C)c1 (stereo unspecified)	nt	-5.9%	i
c1ccc(C(CN2CCOCC2)c2ccccc2)cc1	2.1	-5.6%	i
Cc1cc(C)n2nc(SCC(=O)Nc3c(C)n(C)n(-c4ccccc4)c3=O)nc2n1	nt	-1.5%	i
O=C(O)C1CCN(C(=O)c2scc3c2OCCO3)CC1	-0.13	5.6%	i
O=C(CCn1c(=O)c2sccc2n(CC(=O)OCc2ccccc2)c1=O)NCc1ccco1	-0.56	-0.5%	i
COc1ccc(CNC(=O)c2cc3c(=O)n4ccccc4nc3n(Cc3ccco3)c2=N)cc1	-0.38	4.9%	i
c1nc(N2CCC3(CC2)OCCO3)c2c3c(sc2n1)CCCC3	0.11	-2.6%	i

A section of the results above:
SMILES	WNV NS2B-NS3 inh	Hsc70 ATP site	MT1-MMP promoter
Clc1ccc(Cn2ncc3c(NCc4cccnc4)ncnc32)cc1	-0.03	-2.0%	i
CCC(=O)Nc1cccc(NC(=O)CSc2nnc(C3CC3)n2C)c1	-0.51	-1.1%	i
NC(=O)C1CCN(C(=O)c2ccc(C(F)(F)F)cc2)CC1	1.5	-1.9%	i
Cc1ccc(NCc2nnc(SCC(N)=O)n2CC2CCCO2)c(C)c1 (stereo unspecified)	nt	-5.9%	i

(further entries)
SMILES	WNV NS2B-NS3 inh	Hsc70 ATP site	MT1-MMP promoter
O=C(CC(C(=O)N1CCc2ccccc21)n1ccnc1)NCc1ccccc1 (stereo unspecified)	nt	0.6%	i
CCOc1ccccc1NC(=O)CSc1nnc(-c2ccccn2)n1Cc1ccco1	-0.36	9.8%	i
CS(=O)(=O)N(Cc1ccccc1)c1ccc(C(=O)NC2CCCCC2O)cc1 (stereo unspecified)	-0.96	0.6%	i
Cc1ccccc1-n1c(C)nnc1SCC(=O)N1CC(=O)Nc2ccccc21	-0.35	-4.7%	i
COc1ccccc1N1CCN(Cc2nc(N)nc(Nc3ccc(C)c(Cl)c3)n2)CC1	0.15	6.5%	i
CCC(C)(C)NC(=O)C(C)OC(=O)c1nsc(Cl)c1Cl (stereo unspecified)	nt	-1.2%	i
CCOc1ccccc1Cn1c(=O)oc2ccc(C)cc21	1.3	-0.5%	i
COc1ccc(-c2nnc(SCC(=O)NC(C)c3ccccc3)o2)cc1 (stereo unspecified)	-0.63	1.6%	i
O=C1CC(=O)CC(c2ccco2)C1	0.07	-6.3%	i
CC1CCC(C(=O)NC(C(=O)N2CCc3ccccc3C2)C(C)C)CC1 (stereo unspecified)	nt	3.5%	i
CCc1nc2ccccc2c(C(=O)OCC(=O)Nc2ccc(S(=O)(=O)N3CCOCC3)cc2)c1C	-0.16	1.5%	i
C/C(Cn1cnc([N+](=O)[O-])n1)=N\NC(=O)c1ccc(F)cc1	nt	-1.2%	i
COc1ccc(Cl)cc1NC(=O)CN1C(=O)CCS(=O)(=O)c2ccccc21	0.44	-3.1%	i
CN(CC(=O)N1CCN(c2ccc(F)cc2)CC1)S(=O)(=O)c1ccc(F)cc1	0.48	-7.1%	i
COc1ccc2nc(SCC(=O)Nc3ccc(S(=O)(=O)N4CCCC4)cc3)c(C#N)cc2c1	-0.46	-21%	i
Cc1ccc(Cn2nnnc2CN2CCC(NC(=O)c3ccc(Br)cc3)CC2)cc1	nt	0.4%	i
Cn1c(=O)[nH]c(=O)c2[nH]c(NCCCN3CCOCC3)nc21	-0.23	-1.0%	i
CCOc1ccc(N(C(C)C(=O)NC2CCCCCC2)S(C)(=O)=O)cc1 (stereo unspecified)	-1.3	-1.6%	i
CC1CCCN(C(=O)CSc2nnc3n(C4CCCC4)c(=O)c4ccccc4n23)C1 (stereo unspecified)	0.58	0.3%	i
COC(=O)Cn1nc(-c2ccccc2)n(-c2ccccc2)c1=S	-0.5	-7.0%	i
Cc1nnc(SCC(=O)Nc2ccc3c(c2)OCCO3)n1CC1CCCO1 (stereo unspecified)	0.05	3.1%	i
CC1CN(S(=O)(=O)c2cccs2)CC(C)O1 (stereo unspecified)	-0.18	-16%	i
O=C(CC1CCCC1)Nc1ccc2c(c1)CCC2	nt	7.2%	i
COc1ccc(CCn2c(-c3ccco3)nc3ccccc3c2=O)cc1OC	-0.55	-3.1%	i
COc1ccc(CC(=O)N2CCN(C(=O)c3ccco3)CC2)cc1	-0.43	-3.8%	i
CCOC(=O)C1=C(C)NC(C)=C(C(=O)OCC)C1C(=O)OCC(=O)N1CCc2ccccc21	0.02	3.8%	i
CCCc1cc(=O)[nH]c(/N=C(/NC(=O)C(C)N2C(=O)c3ccccc3C2=O)Nc2ccccc2)n1 (stereo unspecified)	1.1	5.6%	i
Cn1c(CCN2CCOCC2)nc2cc(NC(=O)COc3ccc(Cl)cc3)ccc21	2.8	4.3%	i
CCc1c(C)nc(N)n2c(SCC(=O)N3CCN(c4ccccc4F)CC3)nnc12	-0.07	1.0%	i
Cc1nc2ccc(S(=O)(=O)NCC(=O)N3CCCCC3)cc2s1	-0.16	-3.1%	i
CCCCCCC1C(C#N)=C(N)OC2=C1C(=O)CCC2 (stereo unspecified)	0.29	0.0%	i
CC#CCN(CC#CC)S(=O)(=O)c1ccc(-n2cnnn2)c(OC)c1	0.11	2.7%	i
CCN(CC(=O)Nc1ccc2c(c1)OCCO2)Cc1cc(=O)oc2cc(C)c(C)cc12	-0.26	0.7%	i
Cc1ccc2cccc(S(=O)(=O)n3nc(C)cc3C)c2n1	-0.74	-2.3%	i
O=C(NCCN1CCOCC1)c1ccc(CS(=O)(=O)c2ccc(Br)cc2)o1	-0.26	7.1%	i
O=C(NCc1cccnc1)c1ccc(CN2CCc3ccccc3C2)cc1	nt	2.6%	i
O=C(Nc1ccc(F)cc1F)c1ccc(COc2c(F)c(F)cc(F)c2F)o1	-0.35	4.9%	i
COc1ccc(C(=O)Nc2ccc(S(=O)(=O)N3CCCCC3C)cc2)c(OC)c1OC (stereo unspecified)	-0.22	-9.1%	i
O=C(Nc1nnc(SCc2ccc(Cl)cc2)s1)c1ccco1	0.92	2.7%	i
Cc1cc(C(=O)N2CCCC2C(=O)O)c(C)o1 (stereo unspecified)	-0.02	-1.4%	i
CCOC(=O)c1[nH]c2ccccc2c1N=CN(CC)CC	-1.1	6.9%	i
CN(CCOC(=O)c1cccc(Br)c1)C(C)(C)C	0.41	9.3%	i
CCCCN1CCc2c([nH]c3ccc(C)cc23)C1=O	0.77	5.0%	i
Cc1cc(=O)oc(C)c1C(=O)OCC(=O)c1ccc(Br)cc1	nt	-1.6%	i
CN(C)c1cccc(C(=O)OCC(=O)NCC2CCCO2)c1 (stereo unspecified)	0.43	10%	i
O=C(CN(C(=O)CCC(=O)Nc1nccs1)c1ccc2c(c1)OCCO2)NCc1ccco1	-0.43	0.3%	i
CC(C)Nc1oc(-c2cccc3ccccc23)nc1C#N	-1.3	-1.9%	i
COc1ccc(S(=O)(=O)N2CCC(C(=O)NCc3ccccn3)CC2)cc1Cl	-1.4	-1.2%	i
Cc1ccc(CCNC(=O)c2nnn(-c3cc(C)cc(C)c3)c2N)cc1	0.02	-8.4%	i
Cn1c(=O)n(CCCOc2ccc(Cl)cc2)c2ccccc21	1.5	-4.8%	i

Profiles from above. Screens in order: WNV NS2B-NS3 inh | Hsc70 ATP site | MT1-MMP promoter
Entry for CC(C)Nc1oc(-c2cccc3ccccc23)nc1C#N : -1.3 | -1.9% | i
Entry for CN(CCOC(=O)c1cccc(Br)c1)C(C)(C)C : 0.41 | 9.3% | i
Entry for COc1ccc(S(=O)(=O)N2CCC(C(=O)NCc3ccccn3)CC2)cc1Cl : -1.4 | -1.2% | i
Entry for CCCCN1CCc2c([nH]c3ccc(C)cc23)C1=O : 0.77 | 5.0% | i
Entry for Cc1cc(=O)oc(C)c1C(=O)OCC(=O)c1ccc(Br)cc1 : nt | -1.6% | i

Following part
SMILES	WNV NS2B-NS3 inh	Hsc70 ATP site	MT1-MMP promoter
COc1ccc(S(=O)(=O)Nc2ccc3oc(C)c(C(C)=O)c3c2)cc1	nt	0.3%	i
CCN(CC)c1ccc(C(=O)OCC(=O)N2CCN(c3ccccc3)CC2)cc1	-0.16	-0.7%	i
Cc1c(NS(=O)(=O)c2ccccc2)cc(Cl)c(O)c1C	1.4	2.1%	i
CCn1cc(C(=O)N2CCc3ccccc32)c(=O)c2cc(S(=O)(=O)N3CCCCCC3)ccc21	nt	3.0%	i
COc1ccc(NC(=O)c2cccc(-n3cnnn3)c2)cc1	-0.27	-1.3%	i
O=C(Nc1ccc2c(c1)OCO2)N1CCN(c2ncc(C(F)(F)F)cc2Cl)CC1	nt	-2.3%	i
Cc1ccc(N2CC(c3nc4ccccc4n3C)CC2=O)cc1C (stereo unspecified)	2	-3.2%	i
CN1CCN(Cc2c(O)ccc3c(=O)c(Oc4ccccc4Cl)c(C(F)(F)F)oc23)CC1	3.1	0.1%	i
COC(=O)C1=C(C)OC(N)=C(C#N)C1c1cccnc1 (stereo unspecified)	nt	0.4%	i
C=CCOC(=O)Nc1c(C(=O)OC)[nH]c2ccccc12	-0.9	0.0%	i
Cc1cccc(C)c1NC(=O)CSc1nc(-c2ccco2)cc(C(F)(F)F)n1	nt	-2.1%	i
CCCCN=C(N)/C(C(=O)OCC)=C(\O)c1ccc(OC)cc1	0.82	0.6%	i
COc1ccc(S(=O)(=O)Cc2ccc(C(=O)NCCCN(C)c3ccccc3)o2)cc1	0.2	-3.3%	i
CCOCCCNS(=O)(=O)Cc1ccccc1	0.12	7.2%	i
O=C(O)CCC(=O)Nc1ccc(C(=O)OC2CCCCC2)cc1	0.18	-1.4%	i
COc1ccc(S(=O)(=O)Nc2ccc(Oc3ncccn3)c(Cl)c2)cc1	nt	-1.1%	i
CCOC(=O)COc1cc2c3c(c(=O)oc2cc1C)CCCC3	-0.79	9.0%	i
Cc1nn(Cc2ccc(Cl)cc2Cl)c(C)c1NC(=O)CCl	nt	1.7%	i
CCCC(=O)C1=C(c2ccccc2)C(C#N)(C#N)C(C#N)=C1N	-0.93	-82%	i
CSc1nc(-c2ccccc2)ccc1C(N)=O	0.7	-5.3%	i
Cc1c(C(=O)N2CCCCC2)sc(N)c1C#N	0.2	0.4%	i
Cc1cc(=O)oc2cc(OCC3CC(c4ccc(N(C)C)cc4)=NO3)ccc12 (stereo unspecified)	0.36	-1.1%	i
COCC(C)n1c(C)cc(C(=O)Cn2c(=O)oc3ccccc32)c1C (stereo unspecified)	0.06	-5.3%	i
CC(=O)NCCc1ccc(S(=O)(=O)N2CCCC2)cc1	-0.61	0.4%	i
Cc1nnc(SCC(=O)N2CCN(S(=O)(=O)c3ccc(Cl)cc3)CC2)n(N)c1=O	1.8	-1.0%	i
O=C1C2C3CCCC3=C3CCCC3C2C(=O)N1c1ccc(Cl)cc1 (stereo unspecified)	-0.31	-3.7%	i
Nc1nc(SCCOc2ccccc2)n[nH]1	0.26	-8.8%	i
CCOC(=O)C1CCCN(C(=O)Cc2ccc(Cl)cc2)C1 (stereo unspecified)	nt	-20%	i
O=C(CCNS(=O)(=O)c1ccc(Br)s1)N1CCCCC1	-0.59	3.1%	i
COc1ccc(N2CCN(C(=O)CSc3ncccc3-c3nc4ccccc4[nH]3)CC2)cc1	-1.6	-7.1%	i
Cc1ccc(/C(O)=C2/C(=O)C(=O)N(Cc3cccnc3)C2c2ccccn2)cc1 (stereo unspecified)	-1.8	1.9%	i
O=C(COC(=O)c1ccccn1)Nc1c(Cl)cccc1Cl	-1.1	0.4%	i
CCOC(=O)c1c(C)[nH]c(C)c1C(=O)Cn1nnc(-c2ccccc2C)n1	-2.7	9.6%	i
O=C(O)[C@@H]1CCCN1c1ncnc2sc3c(c12)CCC3	-0.68	3.6%	i
CCCn1c(=O)c(Cc2ccccc2)c(O)c2ccccc21	-1	-1.0%	i
COc1cccc(Oc2cn[nH]c2-c2ccc(OC)cc2O)c1	0.32	-4.9%	i
COc1cc2[nH]c(=O)n(CCC(=O)NC3CCN(Cc4ccccc4)CC3)c(=O)c2cc1OC	nt	-0.7%	i
CCOC(=O)CSc1cc(=O)n(C)c2cc(Cl)ccc12	-0.83	-0.6%	i
C=C(C)COc1ccc(-c2nc(N)ncc2Oc2ccccc2OCC)c(O)c1	1.2	-5.1%	i
C=CCNC(=O)c1ccc(N(CC=C)S(C)(=O)=O)cc1	nt	3.3%	i
O=C(CCSc1ccc(Cl)cc1)N1CCN(c2ncccn2)CC1	-1.5	1.1%	i
O=S(=O)(c1cc(Cl)ccc1Cl)N1CCN(Cc2ccc3c(c2)OCO3)CC1	1.2	5.0%	i
CS(=O)(=O)N1CCCC(C(=O)NC2CCCCCCC2)C1 (stereo unspecified)	-1.9	2.1%	i
Cc1c(/C(O)=C2\C(=O)C(=O)N(CCN(C)C)C2c2cccnc2)cnn1-c1ccccc1 (stereo unspecified)	-0.25	0.8%	i
CC1CN(C2CCN(S(=O)(=O)c3ccc(F)cc3)CC2)CC(C)O1 (stereo unspecified)	nt	-2.2%	i
CCC(C)(C)n1nnnc1C(c1ccccn1)N1CCN(c2cccc(OC)c2)CC1 (stereo unspecified)	nt	1.3%	i

Screening data deposited in PubChem BioAssay by several laboratories.
